Menin MLL FP FL: displaces fluorescein MLL peptide from human menin; Fluorescence polarization, fluorescein-MLL peptide displacement from menin; FP activity change, % at 61.4 µM; AID 1766; 290,000 tested, under 10 active; inconclusive = falling polarisation curve, or a change in total fluorescence; inactive = total fluorescence flat and polarisation flat or rising; no compound was filed as active; the % refers to the polarisation; negative = inhibition;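 note: % of control where 0% means no effect; inhibitors lower the polarisation; unlabelled MLL peptide was the positive control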
ClpP mod: qHTS Assay for Activators of ClpP; 340,000 tested, 1.9% active; AID 651965, 2013; Potency, µM (series often up to 57.5 µM), without a hit: top-dose activity change, negative = active; purified B. subtilis ClpP, FRET peptide cleavage, 20 min; active = well fitted falling curve with a large enough effect; inconclusive = small, poorly fitted or top-dose-only effect; inactive = no such curve, though single readings can be large or run the other way; note: potency is the fitted concentration of half-maximal effect; the source files actives as falling curves though it sought activators and does not explain the sign; nearly all actives have a fitted effect of over 65% in size; many hits overshoot -100%
Target sequence (P80244 whole entry, looked up): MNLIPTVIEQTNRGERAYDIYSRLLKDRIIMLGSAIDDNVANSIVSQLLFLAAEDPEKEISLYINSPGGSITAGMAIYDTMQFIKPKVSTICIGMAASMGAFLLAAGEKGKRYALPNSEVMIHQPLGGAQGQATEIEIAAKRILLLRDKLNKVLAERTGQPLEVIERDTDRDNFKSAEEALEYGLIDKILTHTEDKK
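Buffer: 100 mM Tris/HCl pH8, 100 mM KCl, 0.05% low protease BSA, 2.5% glycerol, 0.01% Tween-20. ClpP 10 microg/mL final; 20 min RT; delta FRET normalized to ADEP and DMSO controls.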
gsp agonist: activates gsp, the McCune-Albright syndrome mutation. AID 624287. 340,000 tested, 0.13% active. gsp mutant cells, cAMP HTRF, 30 min; control for the full effect not named in the record. Potency, µM (doses to about 76.9 µM), inactives show top-dose activation (cAMP increase), actives largely listed as activators; active = well fitted activation curve with a large enough effect; inconclusive = small, poorly fitted or top-dose-only effect, or another doubt; inactive = no such curve, though single readings can be large or run the other way; cell line not stated here;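 note: phosphodiesterase inhibitor Ro 20-1724 added with compounds to block cAMP breakdown; potency is the fitted concentration of half-maximal effect; nearly all actives have a fitted effect of over 60% in size; about a fifth of the inactives were tested at one dose only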
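Cells stably selected in G418 were plated at 2000/well, grown 16-24 hr, then given compounds in DMSO with the PDE inhibitor […] (300 uM solution added) for 30 min at 37C; cAMP was read by HTRF.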
gsp antagonist: antagonists of gsp mutant (McCune-Albright syndrome) | gsp-mutant cells, cAMP HTRF, 30 min; control for the full effect not named in the record | Potency, µM (series often up to 76.9 µM), for inactives: top-dose activity change, negative = inhibition, most hits filed as inhibitors | 340,000 tested, 0.4% active; active = falling curve of any shape with a large fitted effect; inconclusive = falling curve, mostly with a smaller effect; inactive = flat or rising curve; cell line not stated here;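 note: intracellular cAMP measured with PDE inhibitor Ro 20-1724 present during compound exposure; potency is the fitted concentration of half-maximal effect; % is set by controls: 0 for no effect and ±100 for the full control effect; nearly all actives have a fitted effect of over 65% in size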
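Cells, 2000/well, grown 16–24 h in DMEM 10% FBS with 0.5 mg/ml G418, then compounds plus […] (300 uM addition stock), 30 min at 37C. cAMP read by HTRF (cAMP-d2 and anti-cAMP antibody-K in lysis buffer) after 30 min RT.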
PINK1 expr mod: modulators of PINK1 expression | PINK1 immunofluorescence, high-content cytometry, 24 h | Potency, µM (highest dose often 76.6 µM), for the others: at the top dose activation (PINK1 increase), usual class: activators | 410,000 tested, 0.2% active; active = well fitted activation curve with a large enough effect; inconclusive = small, poorly fitted or top-dose-only effect; inactive = flat fitted curve, though single readings scatter; cell line not stated here;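 note: potency is the fitted concentration of half-maximal effect; % of control where 0% means no effect; nearly all actives have a fitted effect of over 65% in size; a mitochondrial uncoupler was the plate control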
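Stable cell line treated 24 h with compounds at 5 concentrations (CCCP controls), then fixed and immunostained for PINK1 plus nuclear and cell stains; PINK1 immunofluorescence quantified by laser-scanning microplate cytometry.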
Sfp inh: inhibitors of Bacillus subtilis Sfp phosphopantetheinyl transferase. 310,000 tested, 3.5% active. Q9F4F7. Biochemical Sfp PPTase activity, qHTS. Potency, µM, inactives show max response, negative = inhibition, usual class: inhibitors; active = well fitted inhibition curve with a large enough effect; inconclusive = small, poorly fitted or top-dose-only effect, or another doubt; inactive = no such curve, though single readings can be large or run the other way;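 note: the enzyme is Sfp with the accession as filed and its product quenches rhodamine fluorescence; potency is the fitted concentration of half-maximal effect; 0% = enzyme reaction without inhibitor and -100% = no enzyme wells; top concentration of the series not given in the record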
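After 15 min at room temperature with compound, 15 nM Sfp received 5 uM rhodamine-CoA plus 12.5 uM BHQ-2-ybbR (50 mM Hepes pH 7.6, 10 mM MgCl2). Rate came from the fluorescence difference over 30 min, ex 525/em 598 nm.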
D2 agonist: agonists of human D2 dopamine receptor (beta-arrestin) | AID 624465 | DiscoveRx PathHunter D2 beta-arrestin, luminescence, 90 min; 100% = 57 uM dopamine signal | 360,000 tested, 0.084% active | activation, % (no concentration beside the values); in the data active = activation above about 40%; inconclusive = about 15% to 40%; inactive = below about 15%; note: compound concentration not given in the record; the text of the record calls up to 30% inactive
Target sequence (P14416 whole entry, looked up): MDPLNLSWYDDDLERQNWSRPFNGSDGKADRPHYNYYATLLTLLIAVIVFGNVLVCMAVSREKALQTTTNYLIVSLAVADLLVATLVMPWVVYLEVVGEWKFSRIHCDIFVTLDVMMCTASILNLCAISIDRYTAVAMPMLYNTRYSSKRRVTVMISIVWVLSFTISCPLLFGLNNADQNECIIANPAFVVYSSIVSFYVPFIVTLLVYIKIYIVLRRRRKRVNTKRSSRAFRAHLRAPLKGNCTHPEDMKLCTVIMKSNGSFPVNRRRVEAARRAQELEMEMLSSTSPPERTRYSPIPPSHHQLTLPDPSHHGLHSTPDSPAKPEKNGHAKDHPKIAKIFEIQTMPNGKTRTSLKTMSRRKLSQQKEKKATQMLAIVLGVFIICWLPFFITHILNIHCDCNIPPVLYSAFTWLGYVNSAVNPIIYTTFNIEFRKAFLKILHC
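Agonist mode: compounds alone added to overnight-plated D2 PathHunter cells for 90 min at 37 C, with 57 uM final dopamine (EC100) defining full response. Beta-arrestin recruitment detected by chemiluminescent reagent, read after 1 h at ambient temperature.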
The depositor's hits bear a star; ? = inconclusive; . = not tested or not shown; & = joins results of further samples; [ ] = another dose, or the depositor's remark. Rows were taken by chance; any-hit rate near 5.1%.

SMILES	PINK1 expr mod	Sfp inh	gsp agonist	ClpP mod	Menin MLL FP FL	D2 agonist	gsp antagonist
O=C(NCCC1CCCCN1S(=O)(=O)c1ccccc1)C(=O)Nc1ccc(F)cc1 (centres undefined)	3.4%	.	7%[15.4 µM]	-1.0%	.	-1.4	-6%
CC1CCN(CC(=O)Nc2ccc(N3CCCCCC3)cc2)CC1	?	-27%	44%	.	2.1	3.1	1%
CC(=O)N1CCN(C(=O)c2ccco2)CC1	-1.3%	1%	-4%	.	-9.4	-1.6	11%
O=C(CSc1nnc(Cc2ccccc2)n1-c1ccc(F)cc1)N1CCOCC1	0.6%[38.3 µM]	8%	-2%	0.9%	1.7	-2.5	-10%
CC1(C)CC(=O)C=C(c2ccccc2CO)C1=O	-0.4%	.	9%	-0.3%	.	-6.4	.
CC(C)n1nnc(-c2ccc(OCc3ccccc3F)cc2)n1	3.7%	-7%	?	-1.5%	-8.5	-1.5	-23%
COCC1CCN(C(=O)c2ccc3oc(Cc4ccccc4)nc3c2)C1 (centres undefined)	0.1%	17%	-24%	0.3%	.	-2.5	-7%
CCC(C(=O)OC)n1cnc2scc(-c3ccc(C)c(C)c3)c2c1=O (centres undefined)	-1.8%	-1%	-52%[inhibitor]	-2.5%	-1.0	-5.6	-27%
CN(c1ccc(C(=O)NCC2CCCO2)cc1)S(=O)(=O)c1ccccc1 (centres undefined)	-1.8%	11%	5%	0.1%	4.4	-1.4	-4%
COc1ccccc1NS(=O)(=O)c1cc(NC(=O)Cc2n[nH]c(=O)c3ccccc23)ccc1Cl	0.8%	.	8%[15.4 µM]	-0.8%	.	-3.1	-18%
CCOCCCNC(=O)c1c[nH]c2ccc(C)cc2c1=O	2.4%[38.3 µM]	-1%	3%	-2.3%	-6.0	-0.9	-14%
CC(=O)Nc1cccc(C(=O)O)n1	-1.3%	?	4%[15.4 µM]	.	-1.9	-3.5	0%
CCC(c1nnnn1Cc1ccc(OC)cc1)N(CCCO)Cc1cc2cc3c(cc2[nH]c1=O)OCO3 (centres undefined)	1.6%[38.3 µM]	?	-19%	22µM*	?	-2.6	-16%
O=C(CCNC(=O)Cn1ccc2ccccc2c1=O)NCCCN1CCN(c2ccc(F)cc2)CC1	-1.9%	17%	7%	-13%	-6.6	-1.3	12%
COc1ccc(C(=O)O)cc1S(=O)(=O)NCc1ccncc1	0.9%	.	-24%	.	.	-2.4	-3%
COc1ccccc1N1CCN(c2nc3c(C)cccn3c(=O)c2C=O)CC1	-4.5%[38.3 µM]	-22%	-7%	0.5%	-1.6	-1.4	4%
Fc1ccc(Nc2nc(Oc3ccc4c(c3)OCO4)nc(N3CCOCC3)n2)c(F)c1	2.0%	9%	26%	0.3%	6.1	-3.8	12%
COc1ccc(/C=C/C(=O)OCc2cccc([N+](=O)[O-])c2)cc1	1.6%	18%	26%	-1.3%	-0.5	12	-8%
O=C(CNC(=O)c1sc2ccccc2c1Cl)NC1CC1	-1.3%	12%	4%	-6.0%	.	-5.4	3%
O=C(NCC1CCCO1)c1cc(S(=O)(=O)N2CCCC2)c(Cl)cc1Cl (centres undefined)	-0.4%	0%	-2%[15.4 µM]	.	3.2	-1.2	2%
CC1(C)C2CC[C@]1(C)C(=O)N(CCCCN1CCN(c3ccccn3)CC1)C2=O	2.2%	6%	-6%	-2.9%	-0.2	70*	4%
CC(C)OC(=O)COc1ccc(-c2ccccc2)cc1	-1.0%	-14%	24%	-7.3%	3.8	0.3	-16%
O=C(CCn1c(=O)oc2ccccc21)Nc1nc2ccccc2s1	-0.3%	5%	-16%	1.9%	1.2	-2.8	-14%
O=NN(CC(=O)NNc1ccccc1)CC(=O)NNc1ccccc1	-0.3%	.	.	1.2%	.	-10	.
O=c1c2ccccc2nnn1CSc1nc2ccccc2c(=O)n1CCCO	2.1%	2%	-30%	1.5%	1.1	-5.4	12%
Cc1ccc(N2C(=O)C3C4CCC(O4)C3C2=O)c(OC(F)F)c1 (centres undefined)	0.7%	.	?	-1.4%	.	0.2	5%
O=C(COc1ccccc1[N+](=O)[O-])N/N=C/c1cccs1	-2.3%	7%	-19%	0.9%	.	2.5	-3%
CC(C)c1nnc(NC(=O)C2CCN(S(=O)(=O)c3ccc(-n4cnnn4)cc3)CC2)s1	0.6%	0%	13%	-2.0%	-0.4	-4.7	7%
FC(F)(F)c1nnc2sc(-c3ccco3)nn12	.	-14%	-35%[inhibitor]	-2.9%	0.2	0.7	8%
COc1ccccc1CNC(=O)N[C@@H](Cc1ccccc1)C(=O)O	-0.3%	13%	-14%	-1.8%	-0.7	-0.7	-7%

Look-ups from the results shown.
Value for `CC(C)n1nnc(-c2ccc(OCc3ccccc3F)cc2)n1` in Sfp inh: -7%
Value for `O=C(NCCC1CCCCN1S(=O)(=O)c1ccccc1)C(=O)Nc1ccc(F)cc1` (centres undefined) in D2 agonist: -1.4

(list continues)
SMILES	PINK1 expr mod	Sfp inh	gsp agonist	ClpP mod	Menin MLL FP FL	D2 agonist	gsp antagonist
Brc1ccc(-c2csc(N3CCOCC3)n2)cc1	0.9%	-13%	6%	1.0%	0.2	-3.3	3%
CCN(C(=O)CSc1nc2cc(C(=O)O)ccc2c(=O)n1-c1ccccc1F)C1CCS(=O)(=O)C1 (centres undefined)	-0.2%	.	-39%[inhibitor]	-18%	.	-2.8	11%
OCCNCCCCOc1ccccc1F	7.2%[38.3 µM]	14%	-3%	-1.6%	2.7	-0.7	16%
CC(C)C(NC(=O)c1ccc(Cl)c([N+](=O)[O-])c1)C(=O)NCc1ccccn1 (centres undefined)	0.4%	.	-19%	4.7%	.	-0.3	-9%
COC(=O)c1ccc(/C=C2/SC(=S)N(CCC(=O)N3CCOCC3)C2=O)cc1	0.8%	0%	-26%	.	.	-0.5	50µM*
O=C(CCn1c(=O)sc2ccccc21)Nc1ccon1	-2.8%[38.3 µM]	8%	-62%[inhibitor]	-1.6%	-0.4	-1.3	7%
Cc1ccc(S(=O)(=O)NC(C)C(=O)N2CCOCCOCCOCC2)cc1 (centres undefined)	-0.2%	17%	-12%	.	-4.4	5.7	9%
Cc1cc2c(cc1S(=O)(=O)NC1CCCCC1C)OCC(=O)N2 (centres undefined)	0.7%	4%	-2%	0.3%	.	1.4	-10%
Cc1ccc(S(=O)(=O)N2C(=O)[C@@H]3Cc4ccccc4CN3C2=O)cc1	2.8%	17%	-65%[inhibitor]	.	4.4	-4.1	6%
CCn1cc(CCC(=O)NCc2ccc(F)cc2)c2ccccc21	3.0%&0.2%	25%	0%	-5.0%&-8.8%	-12	-7.0	0%
COc1ccc2c(c1)C(=O)N(c1ccc(C)cc1)C(=O)C2	-0.3%	17%	-42%[inhibitor]	-2.4%	?	0.0	3%
O=C(c1cc2nc(-c3ccco3)cc(C(F)(F)F)n2n1)N1CCN(c2ccccn2)CC1	-1.4%	-14%	-21%	-2.6%	1.4	-2.0	-20%
CC1=C(C(=O)Nc2ccccc2)C(c2cccs2)C(C#N)=C(SCC#N)N1 (centres undefined)	-2.1%	40µM*	-1%	-3.8%	3.8	-3.0	-15%
CC(Sc1nnc(-c2cccs2)n1-c1ccccc1)C(=O)NCc1ccco1 (centres undefined)	-2.9%	2%	?	-2.8%	3.7	1.3	-6%
O=C(CN1CCN(S(=O)(=O)c2ccc(Br)cc2)CC1)N/N=C/c1ccncc1	0.0%	-4%	4%[15.4 µM]	.	3.7	0.9	-8%
CSc1ccccc1NC(=O)C1(C)CCN1C(=O)Cc1ccc(-c2ccccc2)cc1 (centres undefined)	-0.8%	.	.	-2.0%	.	10	.
COc1ccc(NC(=S)N2CCN(S(C)(=O)=O)CC2)cc1	1.1%	16%	5%	-0.4%	.	2.2	2%
c1cc(Nc2ncnc3sc4c(c23)CCC4)ccn1	0.2%	10%	22%[15.4 µM]	-0.7%	0.8	-1.7	-3%
CN(C)CCNS(=O)(=O)c1ccc(N2CCc3ccccc32)c([N+](=O)[O-])c1	5.3%	-11%	29%	.	-8.6	-7.1	7%
Cc1cc(S(=O)(=O)NCc2ccc(N3CCN(C)CC3)cc2)c(C)s1	7.0%	2%	1%[15.4 µM]	.	-0.4	-3.8	25%
O=C(NCCOCCOCCNC(=O)c1cccnc1)c1cccnc1	1.1%	8%	3%	-2.3%	-2.4	-1.6	13%
O=C(Nc1ccc(OCC(F)(F)C(F)F)c(C(F)(F)F)c1)c1ccc(Cl)cc1	?	.	21%	-8.4%	.	3.2	?
O=C1OCCN1C(=O)[C@H]1[C@H](c2ccccc2)C(c2ccccc2)=NN1c1ccccc1	2.3%	-2%	.	-17%	?	-0.7	-15%
C=CCn1c(SCC(=O)c2c(N)n(C)c(=O)n(C)c2=O)nnc1-c1ccncc1	2.5%	6%	-2%[15.4 µM]	.	0.3	6.3	.
CN(C)C(=O)Cn1cc(S(=O)(=O)Cc2ccccc2)c2ccccc21	0.6%	1%	?	1.4%	1.1	1.9	4%
Cc1noc(C)c1NC(=O)NCCN1CCN(Cc2ccccc2)CC1	0.6%	20%	3%[15.4 µM]	0.3%	-2.3	2.5	8%
CC(C)(C)S(=O)N1Cc2cc(C(=O)NCc3ccc4c(c3)OCO4)nc(-c3cccc(-c4ccccc4)c3)c2[C@@H]1CCO (some centres undefined)	1.0%	.	.	-5.6%	.	3.4	.
CC(C)(C)NS(=O)(=O)c1ccc(CCC(=O)NCc2cccnc2)cc1	-1.6%[38.3 µM]	5%	-48%[inhibitor]	0.1%	-4.6	-0.5	3%
O=C(N/N=C/c1ccco1)c1ccc(N2CCCC2=O)cc1	-0.2%	3%	?	-3.4%	2.6	-1.6	2%

Screening results (PubChem BioAssay)
